Source: PubChem
AmpC nodet inh: blocks E. coli AmpC beta-lactamase in absence of detergent | 71,000 compounds, 1.8% hits | AID 585 | Potency, µM (top dose mostly 28.7 µM), for the others: at the top dose activity change, negative = inhibition | AmpC nitrocefin hydrolysis, absorbance 480 nm, no detergent; potencies from a single point are estimates; active = falling curve, for most hits resting on a single point; inconclusive = weak or doubtful change; inactive = flat or rising curve; note: % of control where 0% means no effect; about half of the hits show no inhibition at the top dose; a quarter of the inactives give rising signals
Target sequence (P00811 whole entry, looked up): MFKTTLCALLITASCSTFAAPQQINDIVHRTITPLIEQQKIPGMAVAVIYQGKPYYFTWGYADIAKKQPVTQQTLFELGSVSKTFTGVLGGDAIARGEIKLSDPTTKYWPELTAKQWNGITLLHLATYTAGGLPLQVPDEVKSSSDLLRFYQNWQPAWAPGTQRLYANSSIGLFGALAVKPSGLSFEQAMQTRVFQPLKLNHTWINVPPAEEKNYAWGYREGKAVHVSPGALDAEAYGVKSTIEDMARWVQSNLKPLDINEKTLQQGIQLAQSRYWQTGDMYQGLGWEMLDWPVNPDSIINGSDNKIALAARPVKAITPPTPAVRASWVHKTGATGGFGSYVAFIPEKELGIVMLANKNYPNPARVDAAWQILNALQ
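AmpC in 20 mM phosphate buffer pH 7.0 was preincubated 15 min at room temperature with compounds. Nitrocefin (800 uM stock) was then added and hydrolysis followed at 480 nm every 20 s for 4 min.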
* = called active by the depositor; ? = inconclusive; & = joins results of further samples; [ ] = remark or other dose. Potency is the fitted concentration of half-maximal effect. The list is partial, so the mix of outcomes need not match the whole.

SMILES	AmpC nodet inh
O=C(CCCNS(=O)(=O)c1cccs1)N1CCc2ccccc2C1	17%
CC(C)c1ccccc1	-4%
c1ccc2sc(C3CCCNC3)nc2c1 (stereo unspecified)	-1%
CCSc1nnc(-c2cccs2)o1	-1%
Cc1cccc2nc(Cn3c(=O)n(CCC(=O)NCc4ccco4)c(=O)c4ccccc43)cc(=O)n12	13%
COc1ccc(C2(CNC(=O)c3ccc(Br)o3)CCOCC2)cc1	26%
CN(C)c1ccc(C2CC(=O)NC3=C2C(=O)CC(C)(C)C3)cc1 (stereo unspecified)	-4%
COCCn1c(=O)cnc2cnc(N3CCNCC3)nc21	16%
COc1cccc(C(c2sc3ncnn3c2O)N2CCc3ccccc3C2)c1 (stereo unspecified)	29%
COc1cccc(CNC(=O)C2CCCN(S(C)(=O)=O)C2)c1 (stereo unspecified)	-8%

Continued.
SMILES	AmpC nodet inh
COc1ccc(C(=N/O)/C(=N/O)c2ccc(OC)cc2)cc1	-14%
COc1ncc2nc(CCc3ccccc3)c(=O)n(-c3ccccc3)c2n1	20%
O=C(Nc1nc2c(s1)CCc1ccccc1-2)c1ccco1	4%
CS(=O)(=O)N(CC(=O)NCc1ccc2c(c1)OCO2)c1ccccc1	-14%
Cc1cccc(CN2CCN(CC(=O)O)C2=O)c1	-12%
O=C(COc1ccccc1)NCCc1cn2ccsc2n1	11%
CN1CCN(C(=O)c2ccc(C3SCC(=O)N3Cc3ccco3)cc2)CC1 (stereo unspecified)	10%
Cn1c(=O)c2c(nc(N3CCCCCC3)n2CC(O)COc2ccccc2)n(C)c1=O (stereo unspecified)	109%
CCc1ccc(C2CC(c3ccc(C)cc3)Nc3nc(N)nn32)cc1 (stereo unspecified)	35%
CCOC(=O)c1c(C)c(C(=O)NCCN2CCOCC2)c(C)n1CC	1%

Other structures.
SMILES	AmpC nodet inh
CCOC(=O)N1CCN(Cc2cc(=O)oc3cc4c(cc23)CCC4)CC1	86%
COc1ccc(OC)c(-c2cc(C(=O)N3CCN(c4ncccn4)CC3)c3ccccc3n2)c1	138%
COc1cc(C2c3c(oc4ccc(Cl)cc4c3=O)C(=O)N2Cc2ccco2)cc(OC)c1OC (stereo unspecified)	1%
COc1ccccc1CNC(=O)CNCC1CCCO1 (stereo unspecified)	-10%
O=C(CSC1=NCCS1)Nc1ccc(S(=O)(=O)N2CCCCCC2)cc1	79%
COc1ccc(NC(=O)CN2CCN(S(=O)(=O)c3ccc(Cl)cc3)CC2)cc1	75%
C=CCc1c(C)nc(SCc2nc3ccccc3c(=O)[nH]2)[nH]c1=O	-7%
COc1ccc(NC(=O)c2cccc(NC(=O)c3ccco3)c2)c(OC)c1	-7%
CCC(=O)Nc1ccccc1N1CCN(S(C)(=O)=O)CC1	6%
O=C(C1CCN(S(=O)(=O)N2CCOCC2)CC1)N1CCN(Cc2ccccc2)CC1	48%

Other results:
SMILES	AmpC nodet inh
CSCCC(NC(=O)C1CCC(C)CC1)C(=O)O (stereo unspecified)	3%
O=C1/C(=C/c2cccnc2)SC(=S)N1Cc1ccco1	-2%[5.75 µM]
CC(C)(C)N(C=C(Cl)Cl)C(=O)NC1CCCCC1	3%
Cn1cccc1-c1nc2ccc(NC(=O)c3ccccc3)cc2[nH]1	-11%
Cc1ccc(N=Cc2c(O)n(C)c(=O)n(C)c2=O)nc1	10%
Cc1ccc(Cl)cc1NC(=O)Cn1cc2c(n1)CCCC2	2%
Cc1ccc(Cl)cc1-n1c(=O)cc(N2CCN(C(=O)c3ccco3)CC2)[nH]c1=O	-4%
O=C(c1ccccc1-c1nc2ccccc2[nH]1)N1CCCCC1	-2%
CC(C)CN1CC2(CCN(S(=O)(=O)c3ccccc3)CC2)C1	-10%
Nc1cccc2ccccc12	-11%

Next part.
SMILES	AmpC nodet inh
COCCn1nnnc1CN(CCc1ccccc1)Cc1cc2ccc(C)cc2[nH]c1=O	90%
CCn1nnnc1-c1ccc(OC)c(S(=O)(=O)NCCc2ccccc2)c1	29%
Cc1cc(C)nc(SCc2nnc(SCC(=O)Nc3nccs3)n2Cc2ccco2)n1	41%
CC(C)=CCNc1ncnc2c1c(C#N)cn2[C@H]1O[C@@H](CO)[C@@H](O)[C@@H]1O	6%[5.75 µM]
CN(C)c1cccc(NC(=O)CCc2ccccc2)c1	-9%
CC(C)(C)P(=O)(CO)c1ccccc1 (stereo unspecified)	0%
COc1ccc(S(=O)(=O)N(C)CC(=O)N2CCN(C)CC2)cc1C	81%
Cn1c(CNC(=O)c2ccco2)nnc1SCC(=O)N1c2ccccc2Sc2ccccc21	60%
CCCCC(=O)C1C(=O)NC(=O)NC1=O	-22%
CC(=O)N1CCc2cc(S(=O)(=O)NCCN3CCC(C)CC3)ccc21	-5%

An excerpt from further up, for reference:
SMILES	AmpC nodet inh
COCCn1nnnc1CN(CCc1ccccc1)Cc1cc2ccc(C)cc2[nH]c1=O	90%
CCn1nnnc1-c1ccc(OC)c(S(=O)(=O)NCCc2ccccc2)c1	29%
Cc1cc(C)nc(SCc2nnc(SCC(=O)Nc3nccs3)n2Cc2ccco2)n1	41%
CC(C)=CCNc1ncnc2c1c(C#N)cn2[C@H]1O[C@@H](CO)[C@@H](O)[C@@H]1O	6%[5.75 µM]
CN(C)c1cccc(NC(=O)CCc2ccccc2)c1	-9%

New compounds follow:
SMILES	AmpC nodet inh
N#Cc1cc2c(nc1SCC(=O)Nc1sc3c(c1C#N)CCC3)CCCCC2	?
CCOC(=O)CCSc1nnc(-c2cccnc2)n1-c1ccccc1OC	23%
Cc1occc1C(=O)Nc1cc(=O)n(C)c(=O)n1C	-8%
COc1ccc(N(C)C(=O)CC2(CC(=O)O)CCCCC2)cc1	-15%
COC(=O)CSc1ncnc2c1cnn2Cc1ccccc1	9%
CCc1ccccc1NC(=O)N1C2CCCC1CC(NC(C)=O)C2 (stereo unspecified)	1%
c1nc(NC2CCNCC2)c2cc(-c3ccc4c(c3)OCO4)ccc2n1	23%
CC(=O)c1cccc(N(CC(=O)N2CCCC2)S(C)(=O)=O)c1	3%
CCS(=O)(=O)N1CCN(C(=O)c2cccc(OC)c2)CC1	12%
O=C(O)CN1CCN(Cc2ccccc2Cl)C1=O	-10%

Going on with the list:
SMILES	AmpC nodet inh
CCOC(=O)N1CCN(C(=O)CN(C2CCCCC2)S(=O)(=O)c2ccc(F)cc2)CC1	97%
O=C(CN1C(=O)CSC1=O)Nc1ccc(C(=O)O)cc1	0%
COc1cccc(C(=O)N(Cc2ccc(N(C)C)cc2)C2CCS(=O)(=O)C2)c1 (stereo unspecified)	25%
COCCn1c(=O)[nH]c2cc(C(=O)NCCN3CCN(c4ccccc4F)CC3)ccc2c1=O	54%
C=CCn1c(SCCCC)nc(O)cc1=O	4µM*[single pt active]
Cc1nn(-c2ccc(F)cc2)c(C)c1NS(=O)(=O)c1ccc(Cl)cc1	-19%
CCc1ccc(OCC(=O)N(C)C)c(Br)c1	21%
O=C(c1ccc2c(c1)OCO2)N(c1ccc(Cl)cc1)C1C=CS(=O)(=O)C1 (stereo unspecified)	2%
C[N+](C)(C)CCCCCNCC12CC3CC(CC(C3)C1)C2	20%
Cc1nn(-c2ccccc2)c2c1C1(C(=O)N(C(C)C)c3ccccc31)C(C#N)=C(N)O2 (stereo unspecified)	64%

(next part)
SMILES	AmpC nodet inh
O=C(Cn1cccc1)N1CCN(c2ccc(F)cc2)CC1	43%
CN1CCN(S(=O)(=O)c2ccc(NC(=O)c3csc4ccccc34)cc2)CC1	81%
NC(=O)c1c(NC(=O)CSc2nnc(-c3ccco3)n2-c2ccccc2)sc2c1CCC2	15%
CCOc1cc(-c2nc3c(C)cccn3c2NCC2CCCO2)ccc1O (stereo unspecified)	22%
CCN1CCN(c2cc(C)c3cc(NC(=O)c4ccncc4)ccc3n2)CC1	21%
O=C(CSc1nnc(CN2CCOCC2)n1-c1ccc(Cl)cc1)N1CCc2ccccc21	148%
Cc1noc(C)c1C(=O)N1CCc2ccccc21	-1%
O=C(NC(=O)N1CCN(c2ccccc2F)CC1)c1ccccc1	16%
COc1ccccc1O	-9%&-8%&14%
Cc1ccccc1-c1cncnc1NCc1cccnc1	5%

Other structures.
SMILES	AmpC nodet inh
COc1cc(OC)c(C2SCCN2S(=O)(=O)c2ccc(F)cc2)cc1OC (stereo unspecified)	84%
O=C(Nc1ccc(Cl)c(C(F)(F)F)c1)N1CCCC(O)C1 (stereo unspecified)	0%
O=C(NC1CCCC1)C(c1cccs1)N(CC1CCCO1)C(=O)Cc1cccs1 (stereo unspecified)	22%
COC(=O)c1cc2occc2n1CC(=O)Nc1cc(OC)cc(OC)c1	-6%
OC[C@H](CCc1c[nH]c2ccccc12)c1c[nH]c2ccccc12	22%[5.75 µM]
Cc1cc(C(F)F)n2nc(C(=O)Nc3ccc(S(=O)(=O)N4CCCCCC4)cc3)nc2n1	40%
COc1cccc(C2C3=C(CCCC3=O)Nc3nc4ccccc4n32)c1OC (stereo unspecified)	29%
CCC(c1nnnn1CCc1ccccc1)N1CCN(c2ccc(OC)cc2)CC1 (stereo unspecified)	93%
CCS(=O)(=O)n1nc(-c2ccccc2)nc1NCc1ccco1	23%
COCCn1c(COC)nc2ccccc21	9%

Other entries follow.
SMILES	AmpC nodet inh
O=C(NCC1CCCO1)c1nn2c(c1Cl)NC(c1ccc(F)cc1)CC2C(F)(F)F (stereo unspecified)	81%
CNC(=O)C1=NCCCc2cc(OC)c(OC)cc21	-2%
Cc1cc(C)c2ccc(N)nc2c1O	1%
CN1C(=S)SC(/[N+]([O-])=C/c2cccnc2)C1(C)C (stereo unspecified)	-11%
CCn1c(COc2ccc(Cl)cc2)nnc1SCC(=O)Nc1ccc2c(c1)OCO2	28%
COC(=O)c1cn[nH]c1N	-3%
COc1ccc(OCC(=O)N2CCN(C(=O)c3ccccc3)CC2)cc1	17%
CCOC(=O)c1ccccc1NC(=O)CN(c1cccc(OC)c1)S(C)(=O)=O	62%
COC(=O)c1ccc(NC(=O)c2cccc(OC)c2)cc1	-8%
C[C@@]12CC[C@H](O)C[C@@H]1CC[C@H]1[C@H]2CC[C@@]2(C)[C@@H](C3=CC(=O)OC3)CC[C@]12O	5%[12.8 µM]

Part of the list above, with each value named:
CCS(=O)(=O)n1nc(-c2ccccc2)nc1NCc1ccco1
  AmpC nodet inh: 23%

COCCn1c(COC)nc2ccccc21
  AmpC nodet inh: 9%

(further entries)
SMILES	AmpC nodet inh
CC(C)OC(=O)CSc1nnc(-c2ccc(Cl)cc2Cl)o1	-10%
CCCCCn1c(SCCc2ccccc2)nc2c1c(=O)[nH]c(=O)n2C	?
CC(=O)c1sc(Nc2nc3ccc(F)cc3s2)nc1C	106%
CC(C)=C1C2C=CC1C1C(=O)N(c3ccc4c(c3)OCO4)C(=O)C21 (stereo unspecified)	8%
CCCCNC(=O)CCC(=O)Nc1ncc(-c2ccc(C)cc2)n1C	26%
O=S(=O)(NCCc1ccccn1)c1ccc(F)c(F)c1	-7%
O=C(CSc1nnc2scc(-c3ccccc3)n12)NCC1CCCO1 (stereo unspecified)	17%
O=C(CON1C(=O)c2ccccc2C1=O)c1ccccc1	2%[5.75 µM]
COc1nc(OC)nc(N2CCC(C(=O)NCc3cccs3)CC2)n1	18%
COCCCN1C(=O)C(=O)/C(=C(/O)c2ccccc2)C1c1ccc(N(C)C)cc1 (stereo unspecified)	5%

The last three entries of the part above come first, to join the parts.
SMILES	AmpC nodet inh
O=C(CON1C(=O)c2ccccc2C1=O)c1ccccc1	2%[5.75 µM]
COc1nc(OC)nc(N2CCC(C(=O)NCc3cccs3)CC2)n1	18%
COCCCN1C(=O)C(=O)/C(=C(/O)c2ccccc2)C1c1ccc(N(C)C)cc1 (stereo unspecified)	5%
Cn1c(=O)c2c(nc(Oc3ccc(-c4ccccc4)cc3)n2C)n(C)c1=O	78%
O=C(CSCc1ccc(Br)cc1)N1CCOCC1	9%
CC(NC(=O)c1ccco1)C(=O)Nc1nc(-c2ccccn2)cs1 (stereo unspecified)	-4%
O=C1C(=O)N(CCCn2ccnc2)C(c2cccnc2)/C1=C(/O)c1ccccc1 (stereo unspecified)	-6%
Cn1cnnc1SCC(=O)c1c[nH]c2ccccc12	-17%
O=C(COC(=O)c1cccc(NC(=O)c2ccco2)c1)c1ccc(Br)cc1	-24%
COc1ccc(CN2CCCCC2C)c(C)c1C (stereo unspecified)	-3%
CCOCCCN(C(=O)c1ccco1)C(C(=O)NC1CCCC1)c1cccc(OC)c1OC (stereo unspecified)	50%
NCC[C@H]1CCC[C@H](CCN)N1	-6%
CN[C@@H](CC(C)C)C(=O)N[C@@H]1C(=O)N[C@H](CC(N)=O)C(=O)N[C@H]2C(=O)N[C@H]3C(=O)N[C@H](C(=O)N[C@H](C(=O)O)c4cc(O)cc(O)c4-c4cc3ccc4O)[C@H](O)c3ccc(c(Cl)c3)Oc3cc2cc(c3O[C@@H]2O[C@@H](CO)[C@@H](O)[C@@H](O)[C@H]2O[C@H]2C[C@](C)(N)[C@H](O)[C@H](C)O2)Oc2ccc(cc2Cl)[C@@H]1O	-4%

Carrying on:
SMILES	AmpC nodet inh
COc1ccc(-c2nn3c(-c4ccc(F)cc4)nnc3s2)cc1	67%
CCOC(=O)c1cc2c(=O)n3cccc(C)c3nc2n(CC2CCCO2)c1=NC(C)=O (stereo unspecified)	54%
CCCCc1ccc(-c2ccc(C)cc2O)nc1	10%
CCOCCCNC(=O)CS(=O)(=O)Cc1nc(-c2cccc(OC)c2)oc1C	56%
Cc1ccc(S(=O)(=O)NC(=O)Nc2c(C)n(C)n(-c3ccccc3)c2=O)cc1	-11%
COc1ccc2c(c1)[nH]c1c(=O)n(CCN3CCCC3)cnc12	0%
CC1(C)NC(=O)N(CCCOc2ccc3c(c2)CCC3)C1=O	39%
CCOC(=O)C1=C(C)NC(=O)C(C(N)=O)C1c1ccccc1 (stereo unspecified)	2%
